Bioassay records deposited in PubChem by National Center for Advancing Translational Sciences (NCATS).
NS1 inh – qHTS Assay for Inhibitors of Influenza NS1 Protein Function; AID 2326, 2010; hit rate 0.4% among 270,000; Potency, µM (top dose mostly 46.1 µM), without a hit: at the highest dose activity, positive = more growth; S. cerevisiae slowed by influenza A NS1, growth recovery by OD600; also: actives are rising curves; nearly all actives have a fitted effect of over 50% in size
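In this qHTS, NS1 from influenza A is expressed in budding yeast, where it slows growth. Cells are switched from glucose to 2% galactose medium (pH 6.0, -URA), treated with compound, and growth recovery is read at OD600.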
MARV entry inh – qHTS for inhibitors of binding or entry into cells for Marburg Virus | Marburg virus pseudotyped entry inhibition, cell reporter; control for the full effect not named in the record; about a third of the inactives were read at about 46 µM | Potency, µM (titrated, usually from 37.8 µM), for the others: top-dose activity change, negative = inhibition, most hits filed as inhibitors | hit rate 1.8% among 300,000; active = well fitted inhibition curve with a large enough effect; inconclusive = small, poorly fitted or top-dose-only effect, or effect the other way; inactive = flat fitted curve, though single readings scatter; tested in HEK293 cells; about a fifth of its hits are not listed in these tables; also: % is scaled to controls: 0 for no effect and ±100 for the full control effect; luciferase read-out
RE007 growth inh – qHTS Assay for Inhibitors of the HIV-1 protein Vpr. Potency, µM (doses to about 92.2 µM), inactives show top-dose activity change, negative = less growth. S. pombe RE007 Vpr strain, BacTiter-Glo ATP luminescence, 24 h; control for the full effect not named in the record. AID 651644, 2012. hit rate 0.21% among 360,000; active = well fitted falling curve with a large enough effect; inconclusive = small, poorly fitted or top-dose-only effect; inactive = no such curve, though single readings can be large or run the other way;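 also: % is scaled to controls: 0 for no effect and ±100 for the full control effect; nearly all actives have a fitted effect of over 50% in size; the assay follows cell death caused by Vpr and the record does not say whether a fall means rescue or toxicity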
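Fission yeast RE007 carrying one integrated HIV-1 vpr copy, seeded at OD 0.01 in PMG+AL medium with 23 nL pinned compound. Grown 24 h at 30 degrees; viability read by BacTiter-Glo luminescence after 5 min.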
Cruzain inh Det – qHTS Assay for Promiscuous and Specific Inhibitors of Cruzain (with detergent); AID 1478, 2009; hit rate 0.43% among 200,000; Potency, µM, without a hit: max response, negative = inhibition, most hits filed as inhibitors; Cruzipain (Trypanosoma cruzi), P25779; purified cruzain, Z-FR-AMC fluorescence, 0.01% Triton; active = well fitted curve in the direction sought with a large enough effect; inconclusive = small, poorly fitted or top-dose-only effect, or another doubt; inactive = no such curve, though single readings can be large; an effect the other way counts as inactive or inconclusive;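 also: plate controls were neutral wells for no effect and buffer without enzyme for full effect; nearly all actives have a fitted effect of over 40% in size; top concentration of the series not given in the record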
Target sequence (P25779 123-467 limits assumed): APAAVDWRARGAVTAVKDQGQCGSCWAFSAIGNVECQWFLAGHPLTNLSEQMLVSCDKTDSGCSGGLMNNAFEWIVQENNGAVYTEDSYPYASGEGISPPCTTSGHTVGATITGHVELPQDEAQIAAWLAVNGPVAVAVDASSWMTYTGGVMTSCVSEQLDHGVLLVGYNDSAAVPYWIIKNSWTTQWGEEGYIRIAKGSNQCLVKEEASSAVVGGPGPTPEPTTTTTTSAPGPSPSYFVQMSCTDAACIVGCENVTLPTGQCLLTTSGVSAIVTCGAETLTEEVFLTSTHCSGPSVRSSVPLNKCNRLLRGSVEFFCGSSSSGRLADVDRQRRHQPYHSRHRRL
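Purified cruzain (1.5 nM final) was preincubated with compounds for 15 min at room temperature in 100 mM sodium acetate pH 5.5, 5 mM DTT, 0.01% Triton X-100. Reaction started with 2 uM Z-FR-AMC; AMC fluorescence change over 60 s gave activity.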
Cruzain noTriton – qHTS Assay for Promiscuous and Specific Inhibitors of Cruzain (without detergent); AID 1476, 2009; hit rate 2.3% among 200,000; purified cruzain, Z-FR-AMC fluorescence, no detergent; Potency, µM, for the others: max response, negative = inhibition, actives largely listed as inhibitors; active = well fitted curve in the direction sought with a large enough effect; inconclusive = small, poorly fitted or top-dose-only effect, or another doubt; inactive = no such curve, though single readings can be large; an effect the other way counts as inactive or inconclusive;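 also: plate controls were enzyme without inhibitor for no effect and buffer without enzyme for full effect; nearly all actives have a fitted effect of over 40% in size; top concentration of the series not given in the record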
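Detergent-free condition (0.00005% Triton X-100) in acetate buffer pH 5.5 with DTT. 1.5 nM enzyme and compound were pre-mixed 15 min, then 2 uM Z-FR-AMC substrate added; reaction progress from fluorescence change between first and third reads (60 s).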
Lassa entry inh – qHTS for Inhibitors of binding or entry into cells for Lassa Virus; Lassa virus pseudotype entry inhibition, cell reporter; control for the full effect not named in the record; Potency, µM (top dose mostly 37.9 µM), without a hit: top-dose activity change, negative = inhibition, actives largely listed as inhibitors; hit rate 1.2% among 300,000; AID 540256, 2011; active means well fitted inhibition curve with a large enough effect; inconclusive means small, poorly fitted or top-dose-only effect, or effect the other way; inactive means flat fitted curve, though single readings scatter; tested in HEK293 cells; also: % is scaled to controls: 0 for no effect and ±100 for the full control effect; nearly all actives have a fitted effect of over 50% in size; luciferase read-out
2A StopGo – High Throughput Screening for Foot and Mouth Disease Virus Antivirals | hit rate 1.2% among 410,000 | human cells with a luciferase reporter of 2A StopGo recoding; control for the full effect not named in the record | Potency, µM (top dose mostly 57.9 µM), inactives show at the highest dose signal change, negative = less light | AID 1159524, 2015; active = well fitted falling curve with a large enough effect; inconclusive = small, poorly fitted or top-dose-only effect; inactive = no such curve, though single readings can be large or run the other way; tested in HEK293T cells; also: % is scaled to controls: 0 for no effect and ±100 for the full control effect; nearly all actives have a fitted effect of over 45% in size; luciferase light after 4 h
SARS PLpro yeast – qHTS of Yeast-based Assay for SARS-CoV PLP. S. cerevisiae expressing SARS-CoV PLpro, growth rescue; control for the full effect not named in the record. Potency, µM (highest dose often 32.9 µM), for the others: at the top dose activity, positive = growth rescue. hit rate 0.19% among 330,000; also: 0% is about no effect; nearly all actives have a fitted effect of over 55% in size; growth read by luminescence after 48 h
The depositor's hits bear a star; u = inconclusive; x = not tested or not shown; [ ] = dose if it differs, or a comment. Unless noted, calls follow the shape of the dose curve; as a rule, active means well fitted rising curve with a large enough effect; inconclusive means small, poorly fitted or top-dose-only effect; inactive means no such curve, though single readings can be large or run the other way. Potency is read from the fitted curve at half-maximal effect.

SMILES	NS1 inh	MARV entry inh	RE007 growth inh	Cruzain inh Det	Cruzain noTriton	Lassa entry inh	2A StopGo	SARS PLpro yeast
COc1cccc(NC(=O)CCC(=O)Nc2ccc3nc(N4CCOCC4)cc(C)c3c2)c1	-6%	u	-3%	x	x	4%	52%[activator]	3%
O=C(NC1CCCC1)C1CCC(=O)N1C1CCCCC1 (configuration not stated)	x	13%[46.1 µM]	-5%	x	x	-1%	3%	-5%
CSc1ccccc1C(=O)C1CCCN(Cc2ccn[nH]2)C1 (configuration not stated)	2%	x	14%	x	x	x	-6%	-1%
C=CCn1c(-c2cccc(OCC)c2)n[nH]c1=S	-1%	0%[46.1 µM]	6%	x	x	9%[46.1 µM]	-9%	1%
CCCCN1CC(COCc2ccccc2)Oc2ccccc2S1(=O)=O (configuration not stated)	x	x	1%[18.4 µM]	x	x	u	1%	-6%
CCOc1ccc(NC(=O)COc2ccc(N3CC(C(N)=O)CC3=O)cc2)cc1 (configuration not stated)	x	1%[46.1 µM]	-3%	x	x	-7%	-9%	x
COc1ccc(-c2cc(C(F)(F)F)nc(SCCC(=O)NCc3ccccc3)n2)cc1	3%	-25%	-14%	-4.6%	6%	-26%	-11%	14%
CC(C)NC(=S)N/N=C/c1c[nH]c2ccccc12	18%	-4%	-9%	-12%	-2%	-13%	7%	15%
CN(C)c1ccc(/C=C/C(O)=C2/C(=O)N(C)C3(C)CC2c2ccccc2O3)cc1 (configuration not stated)	11%	1%	x	-9.4%	20µM*	x	x	-4%
CC1(C)CC(=O)C2=C(C1)NC(=O)CC2c1ccc(F)cc1 (configuration not stated)	-1%	-15%	-21%	0.6%	-9%	-5%	0%	-7%
N#CC1=C2C=Cc3ccccc3N2CCCC1=O	-4%	u	-17%	-4.7%	5%	0%	-5%	-4%
CCOC(=O)c1ccc(Nc2cc(C)nc(C)c2C(=O)OCC)cc1	-8%	-19%	-1%	-2.8%	-1%	1%	25%	-4%
COc1cccc(OCc2cc(C(=O)NCC3CCCCC3)no2)c1	-10%	x	1%	x	x	x	25%	-10%
O=C(c1cccc(Cl)c1)n1nc(-c2ccco2)nc1NCc1cccs1	x	12%[46.1 µM]	x	-3.6%	-16%	u	19%	x
COc1ccccc1OCC(=O)NCC1CCCN(Cc2cnn(C)c2C)C1 (configuration not stated)	11%	10%	1%	x	x	7%	-9%	1%
CC(NC(=O)/C=C/c1cnc2ccccc2n1)C12CC3CC(CC(C3)C1)C2 (configuration not stated)	-4%	-26%	-2%	-5.1%	8%	u	u	3%
COc1ccc(OCC(=O)N2CCN(CCc3ccccn3)CC2)cc1	x	u	x	0.0%	0%	-14%[46.1 µM]	-25%	x
Clc1ccc(-c2nc3ccccc3n2OCc2ccccc2)cc1	-3%	-7%	-2%	0.3%	-2%	8%	11%	1%
Cc1noc(-c2ccc(N(C)Cc3ccccc3)c([N+](=O)[O-])c2)n1	x	-12%[46.1 µM]	x	-4.0%	14%	u	16%	x
CCN(CC)C(=O)c1sc2c(c1C)c(=O)n(-c1ccc(C)c(C)c1)c(=O)n2CC(=O)NCC1CCCO1 (configuration not stated)	x	-5%[46.1 µM]	16%	x	x	x	-14%	0%
O=C1/C(=C\c2cccc([N+](=O)[O-])c2O)SC(=S)N1Cc1ccccc1	-5%	x	-1%	x	x	x	u	-9%
O=S(=O)(c1ccc(NC(=S)N/N=C/c2ccc(O)c(O)c2)cc1)N1CCOCC1	3%	-5%[46.1 µM]	5%	x	x	u	-9%	0%
Oc1ccc(-c2nc3ncccn3c2Nc2ccc3c(c2)OCO3)cc1	4%	17%[46.1 µM]	-6%	-3.1%	-20%	5%	5%	3%
Cc1ccccc1CN1C(=O)c2ccccc2Sc2ccc(C(=O)NCc3cccs3)cc21	x	x	x	0.4%	u	u	-12%	x
O=C(c1ccccc1)C1CCN(C(=O)c2ccc(Cl)cc2)CC1	-10%	x	7%	x	x	x	-18%	0%
CC(C)CC(c1nnnn1CCc1ccccc1)N1CCC(C(N)=O)CC1 (configuration not stated)	-3%	1%	5%	-1.1%	23%	14%	-12%	12%
Oc1ccccc1-c1n[nH]c(=S)n1Cc1ccccc1	-1%	26%	8%	x	x	-3%	11%	-3%
O=S(=O)(Nc1ccc2c(c1)OCCO2)c1ccc2oc3ccccc3c2c1	-87%	-27%	5%	-6.5%	u	-15%	0%	-15%
CCCOc1ccc(C(=O)Nc2ccc(S(=O)(=O)Nc3cc(C)nc(C)n3)cc2)cc1	-6%	x	-22%	x	x	x	25%	-1%
CCn1cc(C(=O)NCCc2ccc(C)cc2)c(=O)c2cc(S(=O)(=O)N3CCc4ccccc4C3)ccc21	x	x	x	-2.7%	3%	22%[46.1 µM]	-23%	x

9 successive records from above, quoted:
SMILES	NS1 inh	MARV entry inh	RE007 growth inh	Cruzain inh Det	Cruzain noTriton	Lassa entry inh	2A StopGo	SARS PLpro yeast
O=S(=O)(c1ccc(NC(=S)N/N=C/c2ccc(O)c(O)c2)cc1)N1CCOCC1	3%	-5%[46.1 µM]	5%	x	x	u	-9%	0%
Oc1ccc(-c2nc3ncccn3c2Nc2ccc3c(c2)OCO3)cc1	4%	17%[46.1 µM]	-6%	-3.1%	-20%	5%	5%	3%
Cc1ccccc1CN1C(=O)c2ccccc2Sc2ccc(C(=O)NCc3cccs3)cc21	x	x	x	0.4%	u	u	-12%	x
O=C(c1ccccc1)C1CCN(C(=O)c2ccc(Cl)cc2)CC1	-10%	x	7%	x	x	x	-18%	0%
CC(C)CC(c1nnnn1CCc1ccccc1)N1CCC(C(N)=O)CC1 (configuration not stated)	-3%	1%	5%	-1.1%	23%	14%	-12%	12%
Oc1ccccc1-c1n[nH]c(=S)n1Cc1ccccc1	-1%	26%	8%	x	x	-3%	11%	-3%
O=S(=O)(Nc1ccc2c(c1)OCCO2)c1ccc2oc3ccccc3c2c1	-87%	-27%	5%	-6.5%	u	-15%	0%	-15%
CCCOc1ccc(C(=O)Nc2ccc(S(=O)(=O)Nc3cc(C)nc(C)n3)cc2)cc1	-6%	x	-22%	x	x	x	25%	-1%
CCn1cc(C(=O)NCCc2ccc(C)cc2)c(=O)c2cc(S(=O)(=O)N3CCc4ccccc4C3)ccc21	x	x	x	-2.7%	3%	22%[46.1 µM]	-23%	x

Next results follow.
SMILES	NS1 inh	MARV entry inh	RE007 growth inh	Cruzain inh Det	Cruzain noTriton	Lassa entry inh	2A StopGo	SARS PLpro yeast
CCc1ccc(C(=O)N2CCN(c3ccc(F)cc3)CC2)s1	-25%	-12%	1%	0.1%	2%	15%	-12%	2%
CC(=O)c1cnc2cc(C)nn2c1C	2%	-11%	19%	3.2%	-4%	0%	-8%	3%
CCC(=O)N1CCc2cc(CNC(=O)Cc3ccc(F)cc3)ccc21	x	x	x	1.8%	0%	0%[46.1 µM]	17%	x
CC1COc2ccccc2N1C(=O)c1ccc(Cl)cc1 (configuration not stated)	-5%	3%	-4%	x	x	0%	-19%	0%
O=C(NCc1csc(-c2cccs2)n1)C1CCC1	-2%	x	5%	x	x	x	79%[activator]	-2%
O=C(O)c1ccc(C2Nc3ccccc3-c3nnc(SCc4ccc(Cl)cc4)nc3O2)cc1 (configuration not stated)	x	u	x	-15%	-15%	-16%[46.1 µM]	5%	x
COc1ccc(CNS(=O)(=O)NCc2ccccc2)cc1	x	-28%[46.1 µM]	-13%	x	x	u	30%[activator]	3%
CCCOc1ccc(C(=O)N(CC(C)C)c2c(N)n(Cc3ccccc3)c(=O)[nH]c2=O)cc1	x	-1%[46.1 µM]	-1%	x	x	u	-10%	3%
O=C(NCCN1CCCCC1)c1c(O)c2ccccc2[nH]c1=O	-9%	u	-16%	-3.4%	3%	20%	19%	2%
CCOCCCn1c(SCC(=O)Nc2ccc(C(N)=O)cc2)nc2ccccc2c1=O	u	u	23%	-3.8%	u	-16%	-6%	-1%
Cc1cc(NC(=O)/C=C/c2cccc(Cl)c2)n(-c2nc3ccccc3[nH]2)n1	1.8µM*	u	-20%	-2.1%	-27%	u	8%	14%
CCN(CC)c1ccc(C2C(C(=O)OCCOC)=C(C)NC3=C2C(=O)CCC3)cc1 (configuration not stated)	-3%	-9%	12%	-4.6%	-1%	-12%	x	4%
COc1c(Cl)cc(Cl)cc1CNCCNCC(C)O (configuration not stated)	14%	u	-10%	6.9%	22%	-27%	x	-6%
COc1ccc(S(=O)(=O)N2CCC(C(N)=O)CC2)c2ccccc12	-1%	u	2%	4.8%	4%	-2%	41%[activator]	0%
Cc1ccc(-n2nnnc2SCc2ccccn2)cc1C	-11%	-2%[46.1 µM]	-23%	-0.1%	-6%	3%	34%[activator]	-1%
O=C(Cn1c(=O)sc2ccccc21)OC(CCl)CCl	-1%	10%	8%	3.8%	-7%	1%	-7%	9%
C[C@]12CC[C@H](O)CC1=C[C@H](O)C1C2CC[C@@]2(C)C1CC[C@@]2(O)C#Cc1ccc(CN)cc1 (some centres not stated)	x	u	-2%	x	x	4%[46.1 µM]	-12%	x

Compounds were not picked by outcome. About 4.5% of those tested had a hit in this group.
